# BJeLR viability: kills HRASV12-expressing BJeLR cells | BJeLR (HRASV12) viability, CellTiter-Glo ATP luminescence, 48 h; reference of the scale not given here | inhibition, % (no concentration beside the values) | hit rate 0.17% among 300,000 | AID 1554;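 active = replicate mean above 50%; inconclusive = above 50% but judged a plate artefact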;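 also: 50 nL library stock added to about 25 µL; numbers are from one replicate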
# Mtb hypoxia rep: inhibitors of hypoxia-regulated fluorescent reporter in Mycobacterium tuberculosis; fluorescence inhibition, % (test concentration not listed); M. tuberculosis hypoxia-regulated fluorescent reporter, fluorescence; AID 1159583; hit rate 0.1% among 300,000;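 active = 35 to 45% if threefold the growth effect, above 45% if 1.5-fold the growth effect; inactive = the rest, general growth blockers included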;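 also: wells of about 50 µL received 100 nL stock; 0% = vehicle wells and 100% = reference inhibitor wells; whole bacteria with a GFP reporter of the hypoxia response; strong numbers were not always called active; many hits fall short of the cut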
# Autofluor counter: compound fluorescence in toxin protease inhibitor counterscreen | compound autofluorescence counterscreen, microsphere flow cytometry; active compounds read high | fluorescence intensity (test concentration not listed) | hit rate 3.1% among 360,000;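 active = at least 3 SD above the mean of all compounds, about 16000 in these data; inconclusive = too few beads counted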;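 also: 100 nL of 1 mM stock went into each well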
# PrP UTR inh: suppresses PrP 5' UTR mRNA reporter expression. cell-based PrP 5' UTR mRNA reporter, plate reader. inhibition, % (concentration not given with the values). hit rate 0.35% among 340,000;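 active = every replicate at 50% or more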;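 also: 0 = median of the neutral control wells; tested in H4 reporter cells; numbers are from one replicate; inactives centre near -14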
# RN4220 kill: S. aureus RN4220 growth inhibition | OD600, 16 h | inhibition, % (test concentration not listed) | hit rate 0.33% among 330,000 | AID 1259311;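 active = z-score of -3 or lower and OD600 up to 0.18 on both plates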;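 also: plate controls were untreated cells for no effect and reference antibiotic for full effect; stock transfer was 100 nL into about 80 µL; one replicate is shown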
# Sa ugtP lethal: kills S. aureus RN4220 lacking UgtP. S. aureus RN4220 ugtP deletion, OD600 growth, 16 h; some inactives read as strong as hits. growth inhibition, % (concentration not given with the values). hit rate 0.54% among 330,000. AID 1259309;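 active = z-score under -3 and OD600 up to 0.15 on both plates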;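 also: plate controls were untreated wells for no effect and antibiotic for full effect; wells of about 80 µL received 100 nL stock; the first replicate is given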
# Mtb hypoxia rep growth: recorded beside Mtb hypoxia rep, whose call it bears; growth inhibition, %; measured here: M. tuberculosis growth (absorbance);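 0% = vehicle and 100% = reference antibiotic; read after six days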
# An asterisk follows results filed as active; ? = inconclusive; . = no result given. Rows were taken by chance; about 4% have a hit in one of these screens.
SMILES,BJeLR viability,Mtb hypoxia rep,Mtb hypoxia rep growth,Autofluor counter,PrP UTR inh,RN4220 kill,Sa ugtP lethal
O=C1C(Cl)=C(N2CCCCCC2)C(=O)N1c1ccc(Br)cc1,-6,0,-3,3472,-7,2.8,16
CCC(Sc1nc2n[nH]c(C)c2c(=N)n1-c1ccc(C)c(Cl)c1)C(=O)N1CCOCC1 (centres undefined),1,.,.,4208,-4,18,-9
O=C(Nc1ccc(C(=O)N2CCOCC2)cc1)Nc1ccc(Cl)cc1Cl,7,10,5,4297,-5,-1.4,-3
Cc1ccccc1N(CC(=O)N/N=C/c1ccccc1Cl)C(=O)c1ccccc1,-1,.,.,3152,-11,.,.
COc1cccc(C(C(=O)NCc2ccccc2)N(C(=O)c2csnn2)C2CC2)c1 (centres undefined),-20,11,1,6002,-4,4.8,15
OCC12COC(c3ccccc3)N1C(c1ccccc1)OC2 (centres undefined),16,3,7,2482,6,3.0,-2
CCOC(=O)c1ccc(NC2OC(=O)c3ccccc32)cc1 (centres undefined),2,.,.,4306,-15,30,-2
COc1ccc(CS(=O)(=O)/C(Cl)=C(/Cl)C(=O)Nc2ccc(OC)nc2)cc1,-29,.,.,2863,48,26,100*
COc1ccc(NC(=O)c2ccc(NC(=O)c3ccco3)cc2)c(OC)c1,-10,10,4,3571,-21,-3.9,4
O=P(O)(Oc1ccccc1)c1ccccc1,.,6,11,3882,-6,1.4,6
Cc1oc2cc3oc(=O)c(CCC(=O)N(C)CC(=O)O)c(C)c3cc2c1C,1,8,0,2917,-13,7.1,15
COc1ccc(C2=NCCc3cc(OC)c(OC)cc32)cc1OC,0,6,3,2470,-10,1.5,1
O=C(C1CCCO1)N1CCN(Cc2nc3ccccc3c(=O)[nH]2)CC1 (centres undefined),0,-2,1,11516,-8,1.8,-6
N#Cc1c(NC(=O)CN2CCN(C(=O)c3ccco3)CC2)sc2c1CCCCC2,5,3,8,10859,-14,4.4,9
COc1ccc(C=NN=C(N)N)cc1,.,7,6,.,.,5.3,3
Cc1ccc(C(=O)NC(=S)NNC(=O)c2ccc([N+](=O)[O-])cc2)cc1,-6,-2,2,3076,-17,36,15
COCc1nc2ccccc2n1Cc1ccccc1C,19,9,8,3212,-5,18,-64
COc1ccccc1-n1c(-c2ccccc2)n[nH]c1=S,-1,11,7,3580,-14,3.6,12
Cc1ccc2cc(CN(CC3CCCO3)S(=O)(=O)c3ccc4c(c3)OCCO4)c(=O)[nH]c2c1C (centres undefined),-7,15,3,7787,-24,4.4,2
COc1ccc([C@@H]2[C@@H]3C(=O)N(C(C)(C)C)C(=O)[C@@H]3[C@]3(Cc4ccc(Cl)cc4)C(=O)N(c4ccc(C)cc4)C(=O)N23)cc1,-13,.,.,3458,-12,.,.
CCOc1ccc(OCC)c(NC(=O)CN(c2ccc(OC)cc2)S(=O)(=O)c2c(C)noc2C)c1,-10,2,5,5519,-2,1.5,-4
CCC(C)Sc1nnc(Cc2cc(=O)[nH]c(=O)[nH]2)n1-c1ccc(F)cc1 (centres undefined),6,.,.,4184,-94,6.9,13
CC(C)Cn1c(N)c(C(=O)COC(=O)c2cc(-c3ccco3)nc3ccccc23)c(=O)n(C)c1=O,2,.,.,4401,2,.,.
O=C(Nc1nnc(C2CCCCC2)s1)C1CC(=O)N(c2ccc(F)cc2)C1 (centres undefined),-10,-4,9,5520,-11,-4.1,8
Cc1cc(C)n2nc(SCC(=O)N3CCN(c4ccccc4)CC3)nc2n1,.,11,7,3658,-21,2.2,3
COc1ccc(NC(=O)CN2CCN(c3ccc(C)cc3C)CC2)cc1,-3,9,3,3104,-37,0.6,11
CCOCCCn1c(SCC(=O)NC(C)(C)C)nc2ccccc2c1=O,-2,17,11,6577,4,0.2,1
CC1(C)CCc2cc(S(=O)(=O)N3CCN(S(=O)(=O)c4c(F)cccc4F)CC3)ccc2O1,.,11,6,3951,-16,9.2,4
CCCC(O)(c1ccc(Br)cc1)C(CN1CCOCC1)c1ccc(Cl)cc1 (centres undefined),3,-2,-5,3680,0,-10,-9
CC(C)Cn1c(N)c(C(=O)COC(=O)/C=C/c2ccccc2)c(=O)n(C)c1=O,-9,-9,-5,4365,-12,1.7,5
COc1ccccc1C(=O)C1CCCN(C(=O)c2cc(C(C)C)no2)C1 (centres undefined),-8,2,6,3291,-44,7.1,5
CCOc1ccccc1C(=O)N1CCOCC1,-2,.,.,2366,-1,3.7,10
C=CCn1c(=N)n(CC(O)COc2ccc(OC)cc2)c2ccccc21 (centres undefined),-1,2,3,5969,-15,-0.5,5
CN(C)N(Cc1ccccc1)C(=O)C(O)(c1ccccc1)c1ccccc1,10,4,-1,2951,-19,4.8,20
CCN(CC)CCNC(=O)c1ccc(NC(=O)c2cn(-c3ccccc3)nc2-c2cccs2)cc1,7,15,8,2695,-15,-7.9,-3
CCC1CCCCN1C(=O)CSC1=NN2CCCC(=O)N=C2S1 (centres undefined),-2,5,7,5379,-19,1.8,8
CCCS(=O)(=O)c1c(S(=O)(=O)CCC)c2ccc(C(N)=O)cn2c1C(=O)OC,-1,0,9,2604,-21,0.8,12
CC/C(O)=C1\C(=O)CCCC1=NCCc1c(C)[nH]c2ccc(C)cc12,-7,-14,10,3253,-9,0.7,-6
CCc1cccc(C)c1NS(=O)(=O)Cc1ccccc1,-3,19,10,4593,-25,2.6,10
COc1cccc(NC(=O)C2C3C=CC4(O3)C2C(=O)N(CCCN2CCC(C)CC2)C4C(=O)NC2CCCCC2)c1 (centres undefined),9,9,11,5475,-28,-1.6,5
CCCCCCc1c(O)nc(SCCN2CCOCC2)[nH]c1=O,-3,8,12,3805,1,4.2,-5
CC(=O)NC(CC(=O)NC1CCCCCC1)c1ccccc1 (centres undefined),0,1,6,2077,0,4.6,2
Cc1ccc(NC(=O)NC2CCCCC2)c(C)c1,1,16,12,8114,-19,4.2,3
Cc1cc(C)c(C(=O)COC(=O)c2nn(C)c(=O)c3ccccc23)cc1C,.,2,-3,8140,-5,4.8,6
COc1ccccc1C(=O)Nc1ccc2c(c1)nc1n2CCSC1,.,-10,-12,?,-17,3.9,8
COCCCNc1nc2nonc2nc1NCCSC,8,2,0,4664,-3,1.8,3
O=C(CNc1cc(S(=O)(=O)N2CCOCC2)ccc1NCC1CCCO1)Nc1ccc(F)c(F)c1 (centres undefined),4,-5,5,?,1,-2.7,-6
O=C1c2ccccc2S(=O)(=O)N1Cc1cccc(S(=O)(=O)N2CCOCC2)c1,-6,5,3,.,21,-1.9,-2
COc1ccccc1NC(=O)CC1C(=O)Nc2ccccc2N1C(=O)c1ccccc1 (centres undefined),-7,-6,1,4347,-11,3.3,2
O=[N+]([O-])c1ccc(N2CCN(Cc3ccccc3)CC2)nc1,2,6,7,3957,-3,2.4,8

# More entries:
SMILES,BJeLR viability,Mtb hypoxia rep,Mtb hypoxia rep growth,Autofluor counter,PrP UTR inh,RN4220 kill,Sa ugtP lethal
CCc1ccc(NC(=O)c2cc(S(=O)(=O)N3CCc4ccccc43)cn2C)cc1,3,-3,1,5980,-30,-4.8,-6
CCCCCCCCOC(=O)C1=C(C)Nc2nnnn2C1c1cccs1 (centres undefined),1,-1,6,3375,-20,-0.9,49
COCC(C)n1c(SCC(=O)NC(=O)Cc2ccccc2)nc2ccccc2c1=O (centres undefined),.,12,-4,3934,-11,2.6,4
NS(=O)(=O)c1ccc(NC(=S)Nc2ccc(OCc3ccccc3)cc2)cc1,14,.,.,4131,-8,3.9,7
COc1ccc(NC(=O)c2c(C)nn(Cc3ccccc3Cl)c2Cl)cc1Cl,-2,5,6,2488,-28,3.6,6
CN(CC(=O)Nc1c(F)cccc1F)Cc1cccs1,6,8,4,4719,-8,5.2,15
CN1CCN(C(=O)C2CC(=O)N(c3ccc(F)c(Cl)c3)C2)CC1 (centres undefined),-4,-1,-2,5504,-13,-0.1,4
CC(=O)c1ccc(NC(=O)c2ccc(C)c(Br)c2)cc1,3,9,8,2549,-96,1.2,-6
CC1(C)C(=O)Nc2ccccc2N1C(=O)COC(=O)c1cccnc1Cl,.,3,11,3455,-14,5.7,3
CC(=O)c1c(C)[nH]c(C(=O)COC(=O)c2ccc3c(=O)n4c(nc3c2)CCC4)c1C,-4,7,0,2606,-11,-0.6,2

# Some values from the results shown.
# Mtb hypoxia rep result of `CC1(C)C(=O)Nc2ccccc2N1C(=O)COC(=O)c1cccnc1Cl` = 3
# RN4220 kill result of `NS(=O)(=O)c1ccc(NC(=S)Nc2ccc(OCc3ccccc3)cc2)cc1` = 3.9
# Sa ugtP lethal result of `COc1ccc(C2=NCCc3cc(OC)c(OC)cc32)cc1OC` = 1
# RN4220 kill result of `Cc1ccc(C(=O)NC(=S)NNC(=O)c2ccc([N+](=O)[O-])cc2)cc1` = 36
# PrP UTR inh result of `O=C(Nc1nnc(C2CCCCC2)s1)C1CC(=O)N(c2ccc(F)cc2)C1` (centres undefined) = -11
# BJeLR viability result of `CC(=O)c1c(C)[nH]c(C(=O)COC(=O)c2ccc3c(=O)n4c(nc3c2)CCC4)c1C` = -4
# Autofluor counter result of `CCC1CCCCN1C(=O)CSC1=NN2CCCC(=O)N=C2S1` (centres undefined) = 5379

# Next records.
SMILES,BJeLR viability,Mtb hypoxia rep,Mtb hypoxia rep growth,Autofluor counter,PrP UTR inh,RN4220 kill,Sa ugtP lethal
O=S1(=O)CSCS(=O)(=O)C1,.,-3,14,3918,-8,-2.3,-5
CCc1ccc(C(=O)NNC(=O)[C@H](C)NC(=O)c2ccco2)cc1,.,0,17,3599,-7,2.5,0
COc1ccc(CCNS(=O)(=O)c2c(N)n(C)c(=O)n(C)c2=O)cc1OC,3,4,7,2018,-5,3.5,9
Cc1ccc(NS(=O)(=O)c2cccc3nsnc23)cc1,2,8,0,4348,-13,6.3,2
Cc1cc(NC(=O)CSc2nnc(C)n2-c2ccccc2C)no1,-3,-2,0,4128,-9,7.8,9
COc1ccc(S(=O)(=O)N2CCN(CC(=O)c3ccc(O)c(O)c3)CC2)cc1,-17,8,-3,5794,3,6.3,-4
COc1ccc(Cl)cc1NC(=O)CCNC(=O)Cn1ccc2ccccc2c1=O,-4,5,-1,3485,-10,2.8,-3
CCOc1ccccc1-c1nc(CN(Cc2cnn(C)c2)C(C)C)c(C)o1,-3,-3,9,4316,-25,2.9,4
CC(NC(=O)CCNC(=O)c1ccccc1Cl)c1ccc(-n2ccnc2)cc1 (centres undefined),9,9,3,5341,-13,1.0,2
COc1cc(C(=O)NNC(=O)CN2C(=O)NC3(CCCC3)C2=O)cc(OC)c1OC,.,9,2,9005,1,4.5,-1

# Entries of single compounds from above. Screens in order: BJeLR viability | Mtb hypoxia rep | Mtb hypoxia rep growth | Autofluor counter | PrP UTR inh | RN4220 kill | Sa ugtP lethal
# Listed for COCC(C)n1c(SCC(=O)NC(=O)Cc2ccccc2)nc2ccccc2c1=O (centres undefined) → . | 12 | -4 | 3934 | -11 | 2.6 | 4
# Listed for COc1ccc(C=NN=C(N)N)cc1 → . | 7 | 6 | . | . | 5.3 | 3

# Remaining list, next part.
SMILES,BJeLR viability,Mtb hypoxia rep,Mtb hypoxia rep growth,Autofluor counter,PrP UTR inh,RN4220 kill,Sa ugtP lethal
CN(CCC#N)C(=O)c1ccc(CNS(=O)(=O)c2ccc(F)cc2)cc1,3,5,15,3027,-21,-3.9,-3
CC(C)(C)OC(=O)N1CCC(C(=O)NNC(=O)c2ccc(Cl)cc2Cl)CC1,-1,10,2,5839,1,1.3,13
Cn1c(N)c(C(=O)COC(=O)CCc2ccccc2)c(=O)n(C)c1=O,3,3,15,4319,-16,7.4,2
COc1ccc(S(=O)(=O)NC(C)C(=O)NCc2ccco2)cc1OC (centres undefined),-7,-7,-1,3602,-26,0.8,0
Cc1cccc(C2=NOC(=O)/C2=C\c2ccccc2F)c1,.,9,-8,6174,-4,1.8,2
O=C(NCC1CCCO1)c1ccccc1OCc1ccc(F)cc1 (centres undefined),1,10,1,5635,8,4.6,1
Cc1ccc(CSc2nccc(-c3c(C)nc4ccccn34)n2)cc1,6,5,13,.,.,0.0,-8
Cc1cccc(C)c1NC(=S)NN=Cc1ccc(C(=O)O)cc1,.,17,8,.,.,5.2,-3
O=c1[nH]c(C2CCN(S(=O)(=O)c3ccccc3F)CC2)nc2c1nnn2Cc1ccc(OC(F)(F)F)cc1,-3,1,-8,4340,-12,-0.9,0
COc1cc(NC(=O)c2cc([N+](=O)[O-])ccc2Br)ccc1NC(=O)c1ccco1,-10,2,12,2475,-8,34,10
Cc1ccc(S(=O)(=O)Oc2cccc([N+](=O)[O-])c2)cc1,.,13,22,4100,-22,5.5,-1
